Compound activity as filed in PubChem.
Ba CapD inh: inhibitors of Bacillus anthracis CapD enzyme; purified CapD enzyme, fluorescence intensity read-out; active compounds read low; some hits fall short of the stated cut; z-score (test concentration not listed); 140,000 tested, 0.23% active; AID 492967;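 active = z-score under -4 in either of two replicates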;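 note: stock transfer was 100 nL into about 40 µL; score is relative to mean and spread of the plate; one replicate is shown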
AID504770: E. coli YBA685 growth inhibition, screen for V. cholerae RctB inhibitors | z-score (no concentration beside the values) | E. coli YBA685 rctB-dependent plasmid, OD600 growth, 3 h; active compounds read low | 130,000 tested, 0.27% active;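 active = z-score under -2 on both plates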;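 note: wells of about 30 µL received 100 nL stock; score is relative to mean and SD of the test wells; the first replicate is given; strong numbers were not always called active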
* = called active by the depositor; i = inactive; . = not tested or not shown.

SMILES	Ba CapD inh	AID504770
CCC(C)N(CC)C(=O)C1C(=O)CC(C)(C)CC1=O (stereo not given)	.	0.05
COCCNC(=O)c1ccccc1OCc1ccc(S(C)(=O)=O)cc1	-0.31	.
CCc1cccc(C)c1Nc1c(-c2ccsc2)nc2cnccn12	-0.29	0.2
COC(=O)c1nnn(-c2nonc2N)c1CN1CCC(Cc2ccccc2)CC1	-0.075	0.85
Cc1ccc(C)n1CCc1c[nH]c2ccccc12	-0.27	-0.85
Cc1[nH]c2ccccc2c1SCc1nnc(SCc2ccc(Cl)cc2)n1C	-0.57	-0.2
O=C(O)c1ccccc1N=Nc1c(O)c2ccccc2oc1=O	-3.1	1.5
CN(C)c1nn(C(=S)Nc2ccc(Cl)cc2)cc1-c1ccccc1	-0.55	.
Cc1sc2nc(CN(C(=O)c3cccs3)C3CCCC3)[nH]c(=O)c2c1C	.	0.45
Cc1cc2ccccc2n2c(SCC(=O)O)nnc12	.	0.3
CSc1nc2cc(C)nn2c(-c2ccccc2Cl)c1C#N	-0.7	0.45
CN(C)c1cccc(C(=O)OCC(=O)Nc2ccccc2Cl)c1	.	0.25
CC(=O)N1Cc2ccccc2CC1C(=O)Nc1ccc(F)cc1C (stereo not given)	.	-0.85
CNNCc1ccc(C(=O)NC(C)C)cc1	0.45	.
N#Cc1ccc(OCC(=O)N2CCC(C(N)=O)CC2)cc1	-0.49	-0.15
O=c1ccc(C(F)(F)Cl)c[nH]1	1.2	-1.1
Cc1cccc(C(=O)N/C(=C/c2ccc(N(C)C)cc2)C(=O)O)c1	0.13	-0.45
COCCCn1c(O)c(C#N)c(C)cc1=O	2.7	.
COc1cccc(C2C(C(=O)Nc3ccc(Br)cn3)=C(C)NC3=C2C(=O)CCC3)c1OC (stereo not given)	2.3	.
O=C(O)/C=C/C(=O)Nc1ccc(-c2nc3ccccc3o2)cc1	.	-1.8
CCC(C)NC(N)=S (stereo not given)	.	-0.05
Cc1c(/C=C/C(=O)Nc2nccs2)sc2ccccc12	-1.5	1.2
N#CC1=C(N)Oc2n[nH]c(-c3ccc4c(c3)OCO4)c2C1c1cccc(OC(=O)N2CCOCC2)c1 (stereo not given)	1.1	.
Cc1cccc(OCCNC(=O)c2cccnc2)c1	0.11	-0.5
O=C(NC1CN2CCC1CC2)c1cccc(Cl)c1 (stereo not given)	0.53	0.7
O=C(NC1CCN(Cc2ccccc2)CC1)C1CCCN(S(=O)(=O)c2cccc3nonc23)C1 (stereo not given)	0.005	-0.8
CCOC(=O)c1cccc(NC(=O)CN(c2ccc(C)cc2)S(=O)(=O)c2c(C)n[nH]c2C)c1	-0.34	-0.55
Cc1[nH]nc2c1C1C(C2)C1(C)C (stereo not given)	0.56	0.05
CCC(=O)Nc1nnc(-c2ccc3c(c2)CCCC3)o1	.	0.4
NC(=O)c1cc(S(=O)(=O)Nc2cccc(F)c2)co1	-0.15	-0.45
O=C1NC(Cc2c[nH]c3ccccc23)C(=O)N1Cc1ccc(Cl)cc1 (stereo not given)	.	-1
O=C(c1c(F)cccc1F)N1CCN(Cc2ccco2)CC1	-0.48	.
O=C(Cn1nnc2ccccc2c1=O)N1N=C(c2cccs2)CC1c1cccs1 (stereo not given)	.	-0.2
OC(CN1CCN(c2cccnc2)CC1)Cn1nnnc1-c1ccccc1 (stereo not given)	0.42	-0.95
CCOC(=O)C1=C(C)N(N(C)c2ncc(C(F)(F)F)cc2Cl)C(=O)CC1	-0.095	.
COCC(C)N=C1NN=C(c2ccc(O)cc2O)CS1 (stereo not given)	.	0.8
CC1=C(C(=O)N2CCOCC2)C(c2c(F)cccc2Cl)C2=C(CC(C)(C)CC2=O)N1 (stereo not given)	47	.
COc1ccc(Cl)cc1NC(=O)c1cnc2scc(C)n2c1=O	-2.2	-0.1
CN(C(=O)c1cc2c(=O)[nH]c3ccccc3c2s1)C1CCCCC1	0.065	1.8
CC1CN=C(Nc2cccc(C(F)(F)F)c2)S1 (stereo not given)	-0.15	.
O=C(Nc1cccc(C(F)(F)F)c1)Nc1cc2cccnc2nc1C(F)(F)F	1.4	.
O=C(c1cc2ccccc2o1)N(Cc1c(F)cccc1Cl)C1CC1	.	-1.5
Cc1nn(C)c(C)c1NC(=O)CSc1nccc(-c2ccc(Cl)cc2)n1	.	-0.7
COc1ccc(Cn2c(O)c(N=O)c3ccccc32)cc1	.	0
O=C(CSc1cn(Cc2ccccc2)c2ccccc12)N1CCOCC1	0.18	1.1
O=C(NC(NC(=O)c1ccco1)c1ccc(Br)cc1)c1ccco1	.	-0.05
CCCN1CCC(N(C(=O)c2ccc(NC(=O)c3ccccc3)cc2)C2CC2)CC1	-0.39	.
CN(C)c1nc(Nc2ccccc2)nc(N(C)C)n1	.	-0.5
CNC(=O)c1cc(Br)cc2c1OCC2	1.1	0.6
Cn1cc(Br)c(-c2cccc(N)c2)n1	-0.07	.
O=C(COc1ccc(Cl)cc1Cl)Nc1ccc2c(c1)OCCO2	0.95	3
CC(=O)N1CCN(c2ccc(C(F)(F)F)cc2[N+](=O)[O-])CC1	-0.59	.
O=C(O)CN1CCN(Cc2ccc(F)cc2Cl)C1=O	-0.035	0.25
CCOC(=O)c1oc2ccc(Br)cc2c1NC(C)=O	-0.23	1.2
S=C(Nc1ccccc1)Nc1nc2ccccc2n1CCOc1ccc(Cl)cc1	-0.1	1.4
COc1ccc(NC(=O)CSc2nnc3n2CCCCC3)cc1	0.36	-0.75
CC(C)(C)c1ccc(S(=O)(=O)Oc2ccc(-c3csnn3)cc2)cc1	-0.26	.
N#Cc1cccc(NC(=O)C2SC(=Nc3ccccc3)C(C(=O)N3CCOCC3)=C2N)c1 (stereo not given)	.	-0.9
O=C(c1cncc(Br)c1)N1CC=C(c2ccccc2)CC1	.	-0.8
CSc1ccc(CCNC(=O)c2cccc3c2C(=O)N(CC2CCCO2)C3)cc1 (stereo not given)	-0.95	1.1
Remaining list, next part
SMILES	Ba CapD inh	AID504770
Cc1cc(C2=NN(C)C(=NCc3ccccc3)SC2)c(C)n1Cc1ccco1	.	0.75
CCc1sc2ncnc(N(C)C)c2c1-c1ccccc1	-1.1	-0.75
CCCOc1c(Br)cc(C=C2C(=O)NC(=O)NC2=O)cc1OCC	0.045	.
Cc1ccc(-n2c(SCc3nnc4n3CCC4)nnc2-c2ccccc2)cc1	.	0.15
Cc1ccc(/C(C#N)=C\c2cc(C)n(C)c2C)cc1	.	1.1
Cc1cc(Nc2ccccc2)n(CCOC(=O)COc2ccccc2)n1	.	1.1
CCOc1ccc(NC(=O)C2=C(C)NC(=O)NC2c2cc(OC)ccc2OC)cc1 (stereo not given)	-1.1	.
COc1cc(OC)c(CN2CCN(C(=O)OCc3cccc(C)c3)CC2)c(OC)c1	-0.68	.
O=C(COc1ccccc1)N1CCN(c2ccccc2F)CC1	-0.16	0.7
CCOC(=O)C1=C(C(F)(F)F)Nc2ncnn2C1c1ccc(OC)cc1 (stereo not given)	0.34	-0.1
Cc1ccc2oc(=O)c3cnn(CC(=O)N(C(C)C)C4CCCCC4)c3c2c1	0.58	0.9
N/C(=N\O)C1CSc2ccccc2C1=O (stereo not given)	0.3	0.3
O=C(Nc1ccccc1)c1ccc(-c2nc(-c3ccc(Cl)cc3)cs2)cc1	-0.76	.
O=C1O/C(=C\c2ccc(Cl)cc2Cl)c2ccccc21	-0.37	-0.4
Cc1ccc(C)n1-c1ccc(C(=O)OC2CCOC2=O)cc1 (stereo not given)	.	-0.4
CCC(C)(C)c1ccc(S(=O)(=O)NCCN2CCCC2)cc1	-0.28	.
N#CCCn1c(SCC(=O)NCCSc2ccc(Cl)cc2)nc2ccccc21	.	-0.6
O=C(NCCc1c[nH]c2ccc(Cl)cc12)OCc1ccccn1	0.27	.
CC(=O)N1CCN(C2CCN(CCc3ccccc3)CC2)CC1	-0.1	-0.8
CC(C)COC(=O)Nc1ccc2c(c1)OCO2	.	-0.1
N=c1ccn2c(n1)O[C@@H]1C2O[C@H](CO)[C@H]1O (stereo not given in full)	.	0
N=c1scc(-c2ccc(Cl)cc2)n1-c1ccc(Cl)c(Cl)c1	0.2	.
Cc1c(C)n(C(=O)CSc2ccccn2)c2ccccc12	0.52	0.6
CO/C(N)=N/C(=S)Nc1cccc(C(F)(F)F)c1	-0.095	0.1
NC(=O)c1ccccc1NC(=O)C(F)(F)F	.	1.4
Cc1cccn2c(=O)c3cc(C(=O)NCCN4CCOCC4)c(=N)n(C(C)C)c3nc12	75	-0.3
CCCc1c(C(=O)OCC)cnn1-c1c(Cl)cc(Cl)cc1Cl	-0.76	.
COc1ccc(C2=NN(C(=O)CCC(=O)O)C(c3ccccc3)C2)cc1OC (stereo not given)	60	.
COc1ccc(NC(=O)CN(CC(=O)Nc2ccc(OC)cc2)C(C)(C)CO)cc1	.	-0.1
CC(O)CNc1nc2ccccc2n1CC(=O)NCC(F)(F)F (stereo not given)	.	1.4
CCOc1c(Br)cc(/C=C2N=C(/C=C/c3ccccc3)OC/2=O)cc1OC	-0.025	.
O=c1sc2c(s1)SC1CCCCCCCCCCC1S2 (stereo not given)	-0.35	.
Cc1nn(Cc2ccc(C(=O)O)o2)c(C)c1Br	-0.26	.
Cc1cc(NC(=O)COC(=O)CSc2ccccc2)no1	.	-0.55
CC(OC(=O)CN1C(=O)c2ccccc2C1=O)C(=O)Nc1cccc(C#N)c1 (stereo not given)	.	0.35
COCCCNC(=O)CC#N	-0.11	.
CN1CCC(NC(=O)C2CCN(c3ccc(C(F)(F)F)cn3)CC2)CC1	1.7	.
Nc1ccc(C(O)C(O)CO)cc1 (stereo not given)	-0.46	-0.3
CC(=O)Oc1cccc(C2C3=C(c4ccccc4C3=O)N(C(C)=O)c3c2c(=O)n(C)c(=O)n3C)c1 (stereo not given)	0.76	.
O=C1NC(=O)C2(CCCC2)N1	.	0.05
CC(C)CC(=O)NC(c1ccccc1)c1c(O)ccc2ccccc12 (stereo not given)	35	-0.7
C=CCNc1nc(SCc2ccc(C)cc2)nc(-c2ccccc2)c1C#N	-0.65	.
CCOC(=O)c1c(C)[nH]c(C)c1C(=O)CO/N=C/c1ccco1	.	-0.05
Cc1cc(C)c2c(c1)-c1c(ssc1=S)C(C)(C)N2CC(=O)c1ccccc1	-1.1	.
COc1ccc2cc3cc(C(=O)NCC4CCN(Cc5cccc(C)c5)CC4)sc3nc2c1	-1.7	-0.4
Cc1nc2ccc(NC(=O)c3ccc(N4C(=O)CCC4=O)cc3)cc2s1	i	0.8
O=C(CSc1nc2cc(C(=O)NCCCN3CCOCC3)ccc2c(=O)n1-c1ccc(F)cc1)c1ccccc1	0.03	.
Cc1cc(-c2nnnn2-c2ccc(F)cc2)no1	-0.78	0.4
COc1ccccc1Nc1nnc(SCC(=O)N(C)Cc2cccs2)s1	.	0.55
Clc1ccc(CN2CCN(c3ccccc3)CC2)cn1	0.36	1.1
COc1ccc(C(=O)N2c3cc(C)ccc3-c3c(ssc3=S)C2(C)C)cc1OC	-0.61	.
c1ccc(-c2cc(-c3ccccc3)n(-c3ccccc3)n2)cc1	0.2	-0.3
Cc1nn2cnnc2c(C)c1CCC(=O)NCCCc1ccccc1	0.6	-0.1
CCOC(=O)c1ccsc1NC(=O)c1ccco1	0	1.5
Cc1ccc(-c2csc(-c3ccc(C(F)(F)F)cc3)n2)cc1	13	-0.5
CCC(C)N=C1NS(=O)(=O)C(c2ccc(F)cc2)=C1C (stereo not given)	-0.42	-1.4
O=C(CSc1nc2ccccc2c(=O)n1-c1ccc(C(=O)N2CCOCC2)cc1)NCc1ccccc1Cl	-0.45	.
CCOC(=O)C1=NOC2C(=O)N(c3ccc(Cl)cc3Cl)C(=O)C12 (stereo not given)	-0.2	.
O=C1NC(=Nc2ccccc2Cl)S/C1=C\c1cccc([N+](=O)[O-])c1O	-1.8	.
CCn1c(=O)c(C(=O)Nc2nccs2)c(O)c2ccccc21	.	1.3

Of the compounds above, 7 have a COOH group:
SMILES	Ba CapD inh	AID504770
O=C(O)c1ccccc1N=Nc1c(O)c2ccccc2oc1=O	-3.1	1.5
Cc1cc2ccccc2n2c(SCC(=O)O)nnc12	.	0.3
Cc1cccc(C(=O)N/C(=C/c2ccc(N(C)C)cc2)C(=O)O)c1	0.13	-0.45
O=C(O)/C=C/C(=O)Nc1ccc(-c2nc3ccccc3o2)cc1	.	-1.8
O=C(O)CN1CCN(Cc2ccc(F)cc2Cl)C1=O	-0.035	0.25
COc1ccc(C2=NN(C(=O)CCC(=O)O)C(c3ccccc3)C2)cc1OC (stereo not given)	60	.
Cc1nn(Cc2ccc(C(=O)O)o2)c(C)c1Br	-0.26	.

Four entries from above, as labelled records:
CCC(C)N=C1NS(=O)(=O)C(c2ccc(F)cc2)=C1C (stereo not given)
  Ba CapD inh: -0.42
  AID504770: -1.4

O=C(CSc1nc2ccccc2c(=O)n1-c1ccc(C(=O)N2CCOCC2)cc1)NCc1ccccc1Cl
  Ba CapD inh: -0.45
  AID504770: .

CCOC(=O)C1=NOC2C(=O)N(c3ccc(Cl)cc3Cl)C(=O)C12 (stereo not given)
  Ba CapD inh: -0.2
  AID504770: .

O=C1NC(=Nc2ccccc2Cl)S/C1=C\c1cccc([N+](=O)[O-])c1O
  Ba CapD inh: -1.8
  AID504770: .

New compounds follow:
SMILES	Ba CapD inh	AID504770
Cc1noc(COc2ccccc2)c1C(=O)O	0.37	3
Cc1ccc(CNS(=O)(=O)c2cn(C)c(=O)n(C)c2=O)cc1	.	0.55
O=c1[nH]c(=O)c2ccc(Cl)cc2[nH]1	1.6	.
COc1ccc2cc3cc(C(=O)NCc4ccc(F)cc4)sc3nc2c1	1.1	-0.9
Cn1[nH]c2nc3[nH]n(C)c(=O)c3c(-c3ccccc3)c2c1=O	0.68	0.65
CC(=O)Nc1ccc(C(=O)OC2CCCCC2=O)cc1 (stereo not given)	.	-0.25
O=C(NCCCCCCOC1=NS(=O)(=O)c2ccccc21)C(=O)Nc1ccccc1	-0.11	.
C=C1C2(C(=O)O)CCC(C2)C1(C)C (stereo not given)	0.37	-0.4
O=C(Nc1cccc(F)c1C(=O)NCCc1ccncc1)c1cccc(C(F)(F)F)c1	-0.74	-0.5
